High-throughput results from PubChem BioAssay.
FGF22 binding – binders of human FGF22 protein, primary screen, FGF22 synaptogenesis inhibitor project, biophysical, thermal shift, single point; Fibroblast growth factor 22 (Homo sapiens), Q9HCT0; recombinant FGF22 thermal shift, SYPRO orange fluorescence; percent of sucrose octasulfate shift, DMSO zero; calls only at 9.99 µM; 340,000 tested, 1.5% active;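 active means melting point raised past a set limit in the mean and every replicate; three in four hits are not shown here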
Target sequence (Q9HCT0 whole entry, looked up): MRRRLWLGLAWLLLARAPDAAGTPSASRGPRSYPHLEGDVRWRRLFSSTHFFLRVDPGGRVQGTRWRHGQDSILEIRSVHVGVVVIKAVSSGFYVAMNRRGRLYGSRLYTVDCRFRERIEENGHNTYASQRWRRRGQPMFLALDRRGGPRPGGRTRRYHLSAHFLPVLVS
Ecoli rRNA inh – reduced GFP signal of wild-type E. coli, primary screen, bacterial rRNA inhibitor project, GFP/RFP fluorescence, OD600, single point | E. coli WT GFP vs humanized-ribosome RFP mutants, 24 h; stronger effect = lower value; DMSO median 0, no signal -100 | GFP signal change (wild-type ribosome), % (test concentration not listed) | 350,000 tested, 1.6% active | AID 720706, 2013;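 active means significant combined selectivity score with lowered wild-type GFP, culture density cut under 30%, mutant RFP and density less affected; inactive means any of these conditions unmet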; further: one replicate is shown; some compounds called inactive have numbers as strong as hits
Ecoli rRNA inh OD600 – further read-out of Ecoli rRNA inh, marked with its call; OD600 change, %; measured here: OD600 growth;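 optical density of the mix in the first replicate; 0 = DMSO median and -100 = no signal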
Ecoli rRNA inh RFP – further read-out of Ecoli rRNA inh, marked with its call; RFP signal change, %; measured here: RFP humanized mutant strains;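 first replicate; 0 = DMSO median and -100 = no signal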
Active calls of the source: *; i = inactive; & = joins results of further samples. An excerpt (hit frequency here may not be typical).

mol,FGF22 binding,Ecoli rRNA inh,Ecoli rRNA inh OD600,Ecoli rRNA inh RFP
CN(C)CC(=O)N1[C@@H](C#N)[C@H](c2ccc(C#CC3CCCC3)cc2)[C@@H]1CO,i,0.4,1.4,-1.5
CCN1[C@@H]2c3ccc(-c4ccccc4OC)c(=O)n3C[C@@H]2[C@@H](CO)[C@@H]1C(=O)N(C)C,i,4.1,6.5,2.1
Cc1noc(C)c1S(=O)(=O)Nc1cccc2c1O[C@H](CN(C)Cc1ccncc1)[C@H](C)CN([C@@H](C)CO)C2=O,i,-3.4,-3.4,-2.5
COc1ccc(NC(=O)N2C[C@@H](O)COC[C@@H]3O[C@H](CC(=O)N4CCOCC4)CC[C@H]32)cc1,i,4.7,12.6,1.6
C/C=C/c1ccc2c(c1)O[C@@H](CN(C)C(=O)CN(C)C)[C@H](C)CN([C@H](C)CO)S2(=O)=O,i,2.4,-7.7,-3.1
COc1ccc(CNC(=O)C[C@H]2CC[C@@H](NC(=O)CN(C)C)[C@@H](CO)O2)cc1,i,2.7,2.2,-2.4
CO[C@H]1CN(C)C(=O)c2ccc(NC(=O)C3CC3)cc2OC[C@H](C)N(C(=O)c2ccccn2)C[C@H]1C,i,2.6,2.5,1.1
C[C@@H]1CN([C@H](C)CO)C(=O)c2cc(C#CC3(O)CCCC3)cnc2O[C@H]1CN(C)C,i,3.9,-1.6,-0.9
C[C@@H]1CN([C@@H](C)CO)C(=O)c2cc(-c3ccccc3F)cnc2O[C@H]1CN(C)C(=O)c1cnccn1,i,1.8,5.8,-3.4
CO[C@@H]1CN(C)C(=O)c2cc(NC(=O)C3CC3)ccc2OC[C@H](C)N(C(=O)C2CCCCC2)C[C@H]1C,i,3.4,-1.9,-2.7
C[C@@H]1CN([C@@H](C)CO)C(=O)c2cc(NC(=O)Nc3ccc(C(F)(F)F)cc3)ccc2O[C@H]1CN(C)C(=O)Nc1cccc2ccccc12,i,2.4,-0.6,0.5
CCCN(C)C[C@@H]1Oc2cc(C#CCC3CCCC3)ccc2S(=O)(=O)N([C@H](C)CO)C[C@@H]1C,i,0.1,1.7,0.5

Additional structures:
mol,FGF22 binding,Ecoli rRNA inh,Ecoli rRNA inh OD600,Ecoli rRNA inh RFP
CNC(=O)C[C@H]1CC[C@@H]2[C@H](COC[C@@H](O)CN2C(=O)Nc2cccc(OC)c2)O1,i,-3.9,-0.9,-2.6
CN(C)C(=O)c1ccc(-c2ccc([C@H]3[C@H](CO)N4CCCCN(S(C)(=O)=O)C[C@@H]34)cc2)cc1,i,3.2,4.7,0.9
COCC(=O)N(C)C[C@@H]1Oc2ncc(-c3ccc(C#N)cc3)cc2C(=O)N([C@@H](C)CO)C[C@@H]1C,i,3.9,9.4,-1.5
CN(C)C(=O)C[C@H]1C=C[C@@H](NC(=O)NC2CCCC2)[C@H](CO)O1,i,1.6,5.3,-0.3
COCC(=O)N1[C@@H](C#N)[C@@H](c2ccc(C#CCC3CCCC3)cc2)[C@@H]1CO,i,-51.6,-74.8,-8.6
Cc1noc(C)c1S(=O)(=O)Nc1ccc2c(c1)C(=O)N([C@@H](C)CO)C[C@H](C)[C@@H](CN(C)C(=O)Nc1ccc(C(F)(F)F)cc1)OCCCC[C@H](C)O2,i,-0.7,-3.1,0.3
C[C@@H]1CN([C@@H](C)CO)C(=O)CCCn2cc(nn2)CO[C@H]1CN(C)C(=O)Nc1cccc(F)c1,i,-0.8&15.1,-6.1&8.9,0.9&0.4
COCCNC(=O)C[C@H]1CC[C@@H]2[C@H](COC[C@H](O)CN2Cc2ccc(Cl)c(Cl)c2)O1,i,-1.9,-4.2,-0.2
CN1[C@@H]2Cn3c(ccc(-c4ccccc4)c3=O)[C@H]1[C@@H](C(=O)NCC1CCCCC1)[C@@H]2CO,i,-0.2,-6.0,-2.1
C[C@H](CO)N1C[C@H](C)[C@H](CN(C)Cc2ccc(C(=O)Nc3ccccc3N)cc2)Oc2c(NS(=O)(=O)c3ccc(Cl)cc3)cccc2C1=O,i,0.5,-3.6,-0.4
O=S(=O)(N[C@@H]1CC[C@@H](CCn2cc(C3CC3)nn2)O[C@@H]1CO)c1ccc(Cl)cc1,i,3.0,3.3,-2.4
C[C@H](CO)N1C[C@H](C)[C@H](CN(C)Cc2ccc3c(c2)OCO3)Oc2ccc(NC(=O)Cn3cnnn3)cc2C1=O,i,2.0,-7.1,4.7

Next section:
mol,FGF22 binding,Ecoli rRNA inh,Ecoli rRNA inh OD600,Ecoli rRNA inh RFP
C[C@@H]1CCCCO[C@@H](CN(C)S(=O)(=O)c2cccs2)[C@@H](C)CN([C@H](C)CO)C(=O)c2cc(NC(=O)Nc3cccc4ccccc34)ccc2O1,i,-0.8,11.5,-3.6
C[C@H](CO)N1C[C@H](C)[C@@H](CN(C)C(=O)C2CC2)Oc2ncc(-c3cccc(C#N)c3)cc2C1=O,i,-1.4,-1.7,-1.2
N#C[C@H]1[C@@H](c2ccccc2-c2ccccc2F)[C@H](CO)N1C(=O)Cc1ccccc1,i,-16.8,-40.3,-1.8
Cc1ccc(-c2ccc3c(c2)O[C@@H](CN(C)Cc2ccc(C(=O)O)cc2)[C@H](C)CN([C@H](C)CO)S3(=O)=O)cc1,i,-3.4,-13.3,-2.9
O=C(Cc1ccccn1)N1CC(=O)N2[C@@H](CO)[C@@H](c3ccc(C#CCC4CCCC4)cc3)[C@@H]2C1,i,-2.2,-27.6,-5.3
O=C(Cc1ccccn1)NCC[C@@H]1CC[C@@H](NC(=O)Nc2ccc(Cl)cc2)[C@@H](CO)O1,i,2.7,-4.8,2.5
COCC(=O)N1CC2(C1)CN(C(=O)Nc1ccccc1F)[C@@H](CO)c1c2c2ccc(OC)cc2n1C,i,-0.4,4.7,0.5
COc1cccc(S(=O)(=O)N(C)C[C@H]2OCc3ccccc3-c3ccccc3C(=O)N([C@@H](C)CO)C[C@@H]2C)c1,i,16.1,-1.7,0.9
C[C@@H]1CN([C@@H](C)CO)C(=O)c2cc(NC(=O)CCN3CCOCC3)ccc2O[C@H]1CN(C)CC1CCCCC1,i,0.3,5.1,-0.6
CCC(=O)N1CC2(C1)[C@H](c1ccccc1)[C@H](CO)N2CCC(F)(F)F,i,4.8,8.9,-1.5
Cc1noc(C)c1S(=O)(=O)N(C)C[C@@H]1OCCCC[C@H](C)Oc2ccc(NC(=O)Nc3cccc4ccccc34)cc2C(=O)N([C@H](C)CO)C[C@@H]1C,i,2.8,1.3,0.0
C[C@@H]1CN([C@@H](C)CO)C(=O)c2cc(NC(=O)Nc3ccc4c(c3)OCO4)ccc2O[C@H]1CN(C)C(=O)Nc1ccccc1,i,2.1,-5.2,-2.9

Additional records
mol,FGF22 binding,Ecoli rRNA inh,Ecoli rRNA inh OD600,Ecoli rRNA inh RFP
COCC(=O)Nc1ccc2c(c1)C(=O)N(C)C[C@@H](OC)[C@H](C)CN(Cc1ccccc1OC)[C@H](C)CO2,i,-0.9,-7.3,-1.0
CCNC(=O)[C@H]1[C@H](CO)[C@H]2Cn3c(cccc3=O)[C@H]2N1C(=O)C1CCCC1,i,4.2,-2.7,-1.2
C[C@H](CO)N1C[C@H](C)[C@H](CN(C)C)Oc2ccc(NC(=O)Nc3ccc(F)cc3)cc2C1=O,i,-2.1,-7.2,1.0
C[C@H]1CN([C@@H](C)CO)C(=O)c2cc(C#CC3(O)CCCC3)cnc2O[C@@H]1CN(C)S(=O)(=O)c1ccc(F)cc1,i,-0.2,-0.1,0.1
O=C(C[C@@H]1CC[C@H]2[C@@H](COC[C@@H](O)CN2C(=O)c2ccncc2)O1)Nc1ccc(-c2ccccc2)cc1,i,1.1,-18.4,0.1
C[C@@H]1CCCCO[C@@H](CN(C)C(=O)Cc2ccccc2)[C@@H](C)CN([C@@H](C)CO)C(=O)c2cc(NC(=O)NC3CCCCC3)ccc2O1,i,4.6,6.8,-0.8
C[C@H]1CN([C@@H](C)CO)S(=O)(=O)c2ccc(C#CC3CC3)cc2O[C@@H]1CN(C)C(=O)CN(C)C,i,3.9,1.1,-1.4
COc1ccc(NC(=O)N[C@@H]2CC[C@@H](CCn3cc(-c4ccccc4)nn3)O[C@@H]2CO)cc1,i,-1.3,-0.7,-1.9
COC(=O)[C@@H]1[C@@H](CO)[C@@H]2Cn3c(ccc(C4=CCCC4)c3=O)[C@@H]2N1Cc1cncnc1,i,4.2,-0.3,1.7
COCC#Cc1ccc2c(c1)O[C@H](CN(C)Cc1ccc3c(c1)OCO3)[C@@H](C)CN([C@H](C)CO)S2(=O)=O,i,-6.7,-11.9,1.1
C[C@@H]1CN([C@@H](C)CO)C(=O)c2cccc(NS(=O)(=O)c3ccc(F)cc3)c2O[C@H]1CN(C)CC1CCCCC1,i,-0.1,5.0,1.5
Cc1ccccc1-c1cnc2c(c1)C(=O)N([C@@H](C)CO)C[C@@H](C)[C@H](CN(C)C(=O)c1ccncc1)O2,i,-1.9,-2.5,-0.5

(further entries)
mol,FGF22 binding,Ecoli rRNA inh,Ecoli rRNA inh OD600,Ecoli rRNA inh RFP
CO[C@H]1CN(C)C(=O)c2cc(NC(=O)c3ccccc3)ccc2OC[C@@H](C)NC[C@H]1C,i,1.6,-1.2,0.6
CS(=O)(=O)Nc1ccc2c(c1)[C@@H]1C[C@@H](CC(=O)NCC3CC3)O[C@@H](CO)[C@@H]1O2,i,4.4,-2.0,-1.4
CC(C)CC#Cc1cnc2c(c1)C(=O)N([C@H](C)CO)C[C@@H](C)[C@H](CN(C)C(=O)C1CCCCC1)O2,i,-0.8,-4.8,-0.2
O=C(NC1CCCC1)N1CCCCN2[C@H](C1)[C@@H](c1ccc(-c3cncnc3)cc1)[C@@H]2CO,i,1.5,-0.7,-5.5
CO[C@@H]1CN(C)C(=O)c2ccc(NS(=O)(=O)c3cccc(Cl)c3)cc2OC[C@H](C)NC[C@H]1C,i,0.0,1.0,2.3
CC(C)NC(=O)N(C)C[C@@H]1Oc2ccc(NC(=O)c3ccncc3)cc2CC(=O)N([C@@H](C)CO)C[C@@H]1C,i,2.2,4.4,-1.0
Cc1noc(C)c1S(=O)(=O)N(C)C[C@@H]1Oc2ccc(NC(=O)CCCN(C)C)cc2C(=O)N([C@@H](C)CO)C[C@@H]1C,i,1.7,-6.1,-0.9
CN(C)C(=O)[C@H]1[C@H](CO)[C@H]2Cn3c(cccc3=O)[C@H]2N1C(=O)C1CCC1,i,4.3,2.9,-2.7
COc1ccc(NC(=O)Nc2ccc3c(c2)[C@@H]2C[C@@H](CC(=O)NC4CCCC4)O[C@H](CO)[C@@H]2O3)cc1,i,1.9,3.1,3.0
COc1cccc(C#Cc2ccc([C@@H]3[C@@H](CO)N4C(=O)CN(C(=O)c5ccccc5)C[C@H]34)cc2)c1,i,-6.7,-55.8,17.1
C[C@H]1CN([C@@H](C)CO)C(=O)c2cc(NC(=O)c3ccncc3)ccc2O[C@H]1CN(C)Cc1ccc(C(=O)Nc2ccccc2N)cc1,i,0.4,2.2,1.4
CN1c2ccc(-c3ccc(F)cc3)cc2[C@H]2[C@H](CCN2S(=O)(=O)c2cccc(F)c2)[C@@H]1CO,i,-1.1,3.3,6.8

(listing goes on)
mol,FGF22 binding,Ecoli rRNA inh,Ecoli rRNA inh OD600,Ecoli rRNA inh RFP
CCCNC(=O)Nc1ccc2c(c1)C(=O)N(C)[C@H]1CC[C@H](CC(=O)NCc3ccccc3)O[C@@H]1CO2,i,-1.9,-6.9,-0.6
CO[C@H]1CN(C)C(=O)c2cc(NS(=O)(=O)CC(F)(F)F)ccc2OC[C@H](C)N(C)C[C@H]1C,i,2.1,0.7,-2.2
COc1ccccc1NC(=O)N[C@@H]1CC[C@H](CCNS(=O)(=O)c2ccc(F)cc2)O[C@@H]1CO,i,-0.7,-4.6,-2.2
CC(=O)N(C)C[C@@H]1Oc2ncc(-c3cncnc3)cc2C(=O)N([C@@H](C)CO)C[C@H]1C,i,1.1,6.3,-1.2
COc1ccccc1C#Cc1cnc2c(c1)C(=O)N([C@H](C)CO)C[C@H](C)[C@@H](CN(C)C(=O)CC1CC1)O2,i,-8.3,-0.9,11.3
CCCC(=O)N1CC2(C1)CN(Cc1ccccc1F)[C@H](CO)c1c2c2ccc(OC)cc2n1C,i,-4.4,-18.7,-1.3

Four structures from above, sorted by SMILES length, rising.
mol,FGF22 binding,Ecoli rRNA inh,Ecoli rRNA inh OD600,Ecoli rRNA inh RFP
CCCC(=O)N1CC2(C1)CN(Cc1ccccc1F)[C@H](CO)c1c2c2ccc(OC)cc2n1C,i,-4.4,-18.7,-1.3
CO[C@H]1CN(C)C(=O)c2cc(NS(=O)(=O)CC(F)(F)F)ccc2OC[C@H](C)N(C)C[C@H]1C,i,2.1,0.7,-2.2
CN1c2ccc(-c3ccc(F)cc3)cc2[C@H]2[C@H](CCN2S(=O)(=O)c2cccc(F)c2)[C@@H]1CO,i,-1.1,3.3,6.8
COc1ccccc1C#Cc1cnc2c(c1)C(=O)N([C@H](C)CO)C[C@H](C)[C@@H](CN(C)C(=O)CC1CC1)O2,i,-8.3,-0.9,11.3
